Assay outcomes deposited in PubChem by National Center for Advancing Translational Sciences (NCATS).
AmpC inh no det – AmpC beta-lactamase inhibition, detergent-free assay | AmpC nitrocefin hydrolysis, absorbance 480 nm, no detergent; potencies from a single point are estimates | Potency, µM (highest dose often 28.7 µM), inactives show top-dose activity change, negative = inhibition | 71,000 compounds, 1.8% hits; active = falling curve, for most hits resting on a single point; inconclusive = weak or doubtful change; inactive = flat or rising curve; further: % of control where 0% means no effect; about half of the hits show no inhibition at the top dose; a quarter of the inactives give rising signals
Target sequence (P00811 whole entry, looked up): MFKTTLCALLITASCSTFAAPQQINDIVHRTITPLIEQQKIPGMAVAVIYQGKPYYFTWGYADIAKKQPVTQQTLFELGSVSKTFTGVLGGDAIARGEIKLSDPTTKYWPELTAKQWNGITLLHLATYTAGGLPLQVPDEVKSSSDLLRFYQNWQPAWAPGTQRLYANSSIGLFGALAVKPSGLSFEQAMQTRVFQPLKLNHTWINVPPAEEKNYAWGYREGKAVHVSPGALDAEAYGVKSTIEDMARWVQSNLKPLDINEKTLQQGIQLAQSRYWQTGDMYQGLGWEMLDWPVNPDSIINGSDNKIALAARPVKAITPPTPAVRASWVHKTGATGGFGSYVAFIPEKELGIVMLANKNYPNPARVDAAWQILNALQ
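AmpC, 20 mM phosphate pH 7.0; 15 min cpd preinc, RT; start with nitrocefin (800 uM stock); A480 kinetic read, 20 s intervals, 4 min. No-enzyme wells = negative control.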
Active calls of the source: *; u = inconclusive; & = joins results of further samples; [ ] = dose if it differs, or a comment. Potency means the concentration at half of the fitted maximal effect. The list is partial, so the mix of outcomes need not match the whole.

SMILES	AmpC inh no det
COc1cc(C(Nc2ccc3c(c2)OCO3)C(=O)NC2CCCCC2)cc(OC)c1OC (stereo unspecified)	67%
CC(C)n1c(SCc2cc(=O)[nH]c3ccccc23)nc2c1c(=O)n(C)c(=O)n2C	32%
COC(=O)C1C(=O)NC(SC)=C(C#N)C1c1ccccc1F (stereo unspecified)	2%
Cc1ccccc1N1CCN(Cc2c(C#N)c3ccccc3n2C)CC1	11%
COc1ccc(C2N(c3cc(C)on3)C(=O)C3CCCN32)cc1OC (stereo unspecified)	4%
CCOC(=O)C(NC(=O)c1ccccc1)(Nc1cc(C)on1)C(F)(F)F (stereo unspecified)	-1%
C=CCOC(=O)C1=C(C)OC(N)=C(C#N)C1c1c(C)nn(-c2ccccc2)c1Cl (stereo unspecified)	44%
O=C(c1ccc(CS(=O)(=O)Cc2ccc(Cl)cc2)o1)N1CCCC1	27%
NC(=O)COC(=O)CNC(=O)c1ccc(Cl)cc1	-6%
CCN1CCCC1CNC(=O)c1cn(C)c2ccc(S(=O)(=O)N3CCCCCC3)cc2c1=O (stereo unspecified)	41%
CCCSc1nnc2nc3c(nn12)c1ccccc1n3C	14%
CSC1=NCCN1C(=O)c1ccco1	-4%
O=C(NC1CCCCC1)NC1(C(=O)NCCCN2CCOCC2)CCCCC1	-16%
COc1cc2oc(=O)c(Br)c(C)c2c(OC)c1OC	7%
COc1ccccc1N1CC(O)=C(c2nc3ccccc3s2)C1=N	24%
Cc1cc(C)nc(SCc2ccc3nonc3c2)n1	17%
N#Cc1c(N)n(CCCN2CCOCC2)c2nc3ccccc3nc12	15%
CC(C)=CCC/C(C)=C/CC/C(C)=C/CSc1ccccc1C(=O)O	0%
O=S(=O)(c1ccc2nc(-c3ccco3)c(-c3ccco3)nc2c1)N1CCOCC1	72%
CCCC(=O)C1=C(O)C(C(=O)OC)C(C)(C)CC1=N (stereo unspecified)	2%
N[C@@H](CO)C(=O)NNCc1ccc(O)c(O)c1O	-5%[12.8 µM]
O=c1[nH]c2cc3c(cc2cc1CN(Cc1nnnn1CC1CCCO1)C1CCCC1)OCO3 (stereo unspecified)	22%
C=CCOC(=O)CCC(=O)Nc1cc(OC)nc(OC)n1	-1%
CCC(C)NC(=O)CSC1=Nc2ccccc2C2=NC(CC(=O)NCc3ccccc3)C(=O)N12 (stereo unspecified)	6%
COc1ccc(-c2[nH]nc3c2C(c2ccc(OC(=O)N4CCOCC4)cc2)C(C#N)=C(N)O3)cc1 (stereo unspecified)	56%
CCn1c(Cc2ccccc2)nnc1SCC(=O)Nc1nnc(-c2ccccc2)s1	0%
O=C1c2c(O)ccc([N+](=O)[O-])c2C(=O)c2c([N+](=O)[O-])ccc(O)c21	-24%
COc1cc(C2NC(=O)NC(c3ccccc3)=C2C(C)=O)ccc1OCC(=O)O (stereo unspecified)	8%
CCN1C(=O)NC(c2cccnc2)C(C(=O)OC)=C1C (stereo unspecified)	12%
O=C(c1ccco1)N1CCN(C(=O)C2c3ccccc3Oc3ccccc32)CC1	71%
CCn1cc(C(=O)OCC(=O)NCc2ccc3c(c2)OCO3)c(=O)c2ccc(C)nc21	57%
COCc1nnc(NC(=O)CCCOc2ccccc2OC)s1	34%
CC1CC(=O)C2=C(C1)Nc1ccccc1N(C(=O)COc1ccccc1)C2c1ccco1 (stereo unspecified)	23%
O=c1[nH]c(CN2CCN(Cc3ccc4c(c3)OCO4)CC2)nc2sc3c(c12)CCC3	26%
COc1ccc(C(=O)SC2=NCCS2)cc1OC	10%
O=C(Nc1nc(-c2ccccc2)cs1)C1CCCO1 (stereo unspecified)	10%
Cc1cc(Nc2ccc3c(c2)OCCO3)n2ncnc2n1	-15%
Cn1c(SCC(=O)NCc2cccs2)nnc1-c1ccco1	-8%
COc1ccc(C2/C(=C(/O)c3ccc(F)cc3)C(=O)C(=O)N2CCCN(C)C)cc1 (stereo unspecified)	-3%
CCCN1C(=O)C(NS(=O)(=O)c2ccc(N)cc2)(C(F)(F)F)C(C(=O)OC)=C1C (stereo unspecified)	-5%
CN1CCc2c(sc(/N=C/c3ccco3)c2C(N)=O)C1	4%
Cn1c(Cc2cccs2)nnc1SCC(=O)N1CCc2ccccc21	45%
CCOc1ccc(C(C)NC(=O)CCC(=O)O)cc1 (stereo unspecified)	8%
COc1cccc2cc(C(=O)N3CCN(c4ccccc4F)CC3)c(=O)oc12	39%
Cc1cc(NS(=O)(=O)c2ccc(C3CCCCC3)cc2)no1	-6%
S=c1nc[nH]c2c1ncn2Cc1ccco1	11%[5.75 µM]
CC(C)(C)c1ccc(-c2nnc(SCCC#N)n2C2CCCC2)cc1	19%
O=C(c1cccc(S(=O)(=O)N2CCOCC2)c1)N1CCOCC1	-6%
COc1ccc(N2C(=O)C3CCCN3C2c2cc(OC)c(OC)c(OC)c2)cc1 (stereo unspecified)	14%
CC1=C(C(=O)OCC2CCCO2)C(c2ccncc2)C2=C(CC(C)(C)CC2=O)N1 (stereo unspecified)	-4%
CCOC(=O)Nc1ccc(C(N)=O)cc1	-3%
N#Cc1nc(COc2ccccc2)oc1N1CCCCC1	19%
CCN(CC)CCNC(=O)c1cn(C)c2ccc(S(=O)(=O)N(C)C3CCCCC3)cc2c1=O	4µM*[single pt active]
COc1ccc(CN(C(=O)Cn2nnc3ccccc32)C(C(=O)NC(C)(C)C)c2ccco2)cc1 (stereo unspecified)	40%
O=c1c2ccccc2c(C=NCCCN2CCOCC2)c(O)n1Cc1ccccc1	149%
Cc1c(NC(=O)c2ccc(CN3CCc4ccccc4C3)cc2)c(=O)n(-c2ccccc2)n1C	30%
CC(C)CC(C(=O)Nc1oc(-c2ccco2)c(-c2ccco2)c1C#N)N1C(=O)c2ccccc2C1=O (stereo unspecified)	5µM*
CCn1c(SCC(=O)Nc2ccccc2C(=O)OC)nnc1-c1ccoc1C	27%
O=C(Nc1ccc(Cl)cc1)N1CCCC1	-2%
COc1ccc(OC)c(S(=O)(=O)NCCc2ccccc2)c1	10%

Next part.
SMILES	AmpC inh no det
CCCn1c(CNc2ccc(Br)cc2)nc2ccccc21	-12%
COc1ccc2c(=O)c3c(=O)n(Cc4ccco4)c(C4CCCCC4)nc3oc2c1	-9%
Cc1ccc2[nH]c(=S)cc(C)c2c1	-4%
O=P(O)(O)C#Cc1ccccc1	-9%
Cc1oc2cc(O)ccc2c(=O)c1Oc1ccccc1Br	u
CN(C)c1ccc2c(c1)N=C(c1ccco1)OP2(=S)N1CCOCC1 (stereo unspecified)	59%
O=C(Nc1ccccc1Cl)c1cccs1	-4%
CC(C)Cc1cc(C(=O)NCCN2CCOCC2)no1	4µM*[single pt active]
Cc1ccc(-c2nnn(CC(=O)Nc3cccc4cccnc34)n2)o1	22%
Cc1ccc(S(=O)(=O)N2CCCC2C(=O)Nc2cc(C)on2)cc1 (stereo unspecified)	9%
Cc1nc2oc(C(=O)c3ccccc3)c(N)c2c2c1COC(C)(C)C2	44%
CCOC(=O)C1CCN(Cc2c(O)ccc3ccccc23)CC1	13%
CCC(c1nnnn1CCOC)N(Cc1ccc(C)cc1)Cc1cc2cc(OC)ccc2[nH]c1=O (stereo unspecified)	118%
CN(C)S(=O)(=O)N1CCN(c2cccc(Cl)c2)CC1	28%
CC(=O)C=NCC(=O)O	5%[5.75 µM]
CCOCCCn1c(C)nc2c(c1=O)c1nc3ccccc3nc1n2-c1ccc(C)cc1	112%
COc1cccc(C2C(C#N)=C(N)Oc3c2oc(CO)cc3=O)c1OC (stereo unspecified)	-10%
COc1cc(OC)cc(C(=O)NCC(=O)N2CCC(C)CC2)c1	1%
Cc1onc(-c2ccccc2)c1C(=O)OCC(=O)c1ccccc1	7%
CCCOC(=O)c1cc(=O)[nH]c2ccccc12	2%&-1%
CC(c1ccccc1)N1CC(C(=O)N2CCN(c3ccccc3)CC2)CC1=O (stereo unspecified)	130%
O=C(O)c1cccnc1SC1CC(=O)N(Cc2ccccc2)C1=O (stereo unspecified)	0%
Cc1ccc(C(=O)CSc2nnc(-c3ccccc3N)n2C)cc1	19%
CCCCOc1ccc(C(=O)CCNC(C(=O)O)C(C)CC)cc1 (stereo unspecified)	3%
COc1ccc(OC)c(S(=O)(=O)N2c3ccccc3CC2C)c1 (stereo unspecified)	5%
CC(C)(O)C(=O)O	-3%
CCCOc1ccc(/C(O)=C2/C(=O)C(=O)N(CCN(C)C)C2c2ccco2)cc1 (stereo unspecified)	19%
Oc1c(Br)cc(Br)cc1CN(Cc1cc(Br)cc(Br)c1O)C1CCCCC1	-3%[5.75 µM]
Cc1ccc(-n2c(C)cc(C)c(C#N)c2=O)cc1	-18%
O=C(CS(=O)(=O)c1c[nH]c2ccccc12)N1CCCCC1	-5%
CCn1c(C(=O)N2CCC(C(=O)NCc3cccs3)CC2)cc2sccc21	113%
CCOc1cccc2cc(C(=O)N3CCc4ccccc4C3)c(=O)oc12	47%
CN(CC(=O)Nc1ccncc1)S(=O)(=O)c1ccccc1	-1%
COc1ccc(C/C(N)=N/n2cnnc2)cc1	-3%
CCOc1ccc(-c2[nH]nc3c2C(c2ccc(O)cc2)C(C#N)=C(N)O3)cc1 (stereo unspecified)	u
Cc1ccccc1C(=O)NC1CCN(Cc2nnnn2CCc2ccccc2)CC1	46%
COc1ccccc1Oc1coc2cc(O)ccc2c1=O	-18%
COC(=O)c1ccc(NC(=O)CSc2nnc(COc3ccccc3)n2C)cc1	35%
CCN(Cc1ccccc1)Cc1c(F)cccc1F	9%
COc1cccc(NC(=O)c2oc3ccccc3c2NC(=O)C2CC2)c1	13%
CCC(=O)Nc1c2c(nn1-c1ccc(C)cc1C)CSC2	6%
COCC(C)NC(=O)NC1(C(F)(F)F)Oc2ccc(Cl)cc2O1 (stereo unspecified)	9%
O=c1c2c3c(sc2n2cnnc2n1CCc1ccccc1)CCCC3	79%
COC(=O)c1ccc(C(NC(=O)OCc2ccccc2)/C(F)=C/[C@@H](C)C(=O)N[C@@H](CO)Cc2ccccc2)cc1 (stereo partly specified)	67%
CCc1nc2oc3cc(OC)ccc3c(=O)c2c(=O)n1Cc1ccco1	9%

Reprinted from the results shown, two compounds:
SMILES	AmpC inh no det
CCn1c(C(=O)N2CCC(C(=O)NCc3cccs3)CC2)cc2sccc21	113%
CCOc1cccc2cc(C(=O)N3CCc4ccccc4C3)c(=O)oc12	47%

The main list resumes, starting five compounds before the break.
SMILES	AmpC inh no det
CCC(=O)Nc1c2c(nn1-c1ccc(C)cc1C)CSC2	6%
COCC(C)NC(=O)NC1(C(F)(F)F)Oc2ccc(Cl)cc2O1 (stereo unspecified)	9%
O=c1c2c3c(sc2n2cnnc2n1CCc1ccccc1)CCCC3	79%
COC(=O)c1ccc(C(NC(=O)OCc2ccccc2)/C(F)=C/[C@@H](C)C(=O)N[C@@H](CO)Cc2ccccc2)cc1 (stereo partly specified)	67%
CCc1nc2oc3cc(OC)ccc3c(=O)c2c(=O)n1Cc1ccco1	9%
O=S(=O)(c1cccc2nsnc12)N1CCOCC1	-16%
CCC(=Nc1ccc(Cc2ccncc2)cc1)c1c(O)n(C)c(=O)n(C)c1=O	109%
COc1ccccc1OCc1ccc(C(=O)n2nc(C)c(Cl)c2C)o1	9%
COc1ccc(C(=O)Nc2ccc3c(c2)nc2n3CCSC2)cc1	-8%
CCCOc1ccc(C2c3c(oc4ccccc4c3=O)C(=O)N2CCCN2CCOCC2)cc1 (stereo unspecified)	122%
O=C(Nc1ccc2c(c1)OCO2)C1CCN(C(=O)c2cccs2)CC1	-6%
CC(=O)N1CCc2cc(S(=O)(=O)NCCC(=O)N3CCc4ccccc4C3)ccc21	19%
Cc1nnc2ccc(N3CCCC3)nn12	-4%
CCCn1nc(-c2ccccc2)c2nc3ccccc3nc21	2%
COc1ccc(OC)c(-c2cc(C(=O)Nc3c(C)nn(Cc4ccccc4)c3C)no2)c1	93%
CCOC(=O)/C(C(N)=NC)=C(\O)c1ccccc1	6%
COc1ccc(OC)c(C2=NOC(C(=O)Nc3cc(C)nn3-c3ccccc3)C2)c1 (stereo unspecified)	4µM*[single pt active]
O=C(Nc1ccc2c(c1)OCO2)C(c1ccccc1)N1CCCCC1 (stereo unspecified)	-7%
O=C1Nc2ccccc2N=C(c2ccccc2)C1N1CCOCC1 (stereo unspecified)	33%
CCc1ccc2[nH]c(=O)c(CN(CCN(CC)CC)C(=O)NC3CCCCC3)cc2c1	47%

In a second layout: entries from further up
Molecule | AmpC inh no det
CC(=O)N1CCc2cc(S(=O)(=O)NCCC(=O)N3CCc4ccccc4C3)ccc21 | 19%
Cc1nnc2ccc(N3CCCC3)nn12 | -4%
CCCn1nc(-c2ccccc2)c2nc3ccccc3nc21 | 2%
COc1ccc(OC)c(-c2cc(C(=O)Nc3c(C)nn(Cc4ccccc4)c3C)no2)c1 | 93%
CCOC(=O)/C(C(N)=NC)=C(\O)c1ccccc1 | 6%
COc1ccc(OC)c(C2=NOC(C(=O)Nc3cc(C)nn3-c3ccccc3)C2)c1 (stereo unspecified) | 4µM*[single pt active]

Additional results.
SMILES	AmpC inh no det
O=C(c1ccco1)N1CCN(C(=O)c2ccccc2OC(=O)C23CC4CC(CC(C4)C2)C3)CC1	108%
CC(CN1CCCCC1)OC(=O)c1ccc(Cl)cc1Cl (stereo unspecified)	4%
CC1Cc2ccccc2N1S(=O)(=O)c1cccs1 (stereo unspecified)	-13%
Cc1nc2sc3c(c2c(=O)[nH]1)CCCC3	1%[5.75 µM]
COc1ccc(CN2CCN(c3cccc(C)c3C)CC2)cc1OC	101%
CC(C)c1ccc(S(=O)(=O)N2CCN(CC(=O)Nc3ccc4c(c3)OCO4)CC2)cc1	74%
COCc1cc(C)nc(SCC(=O)Nc2cccc(C)c2C)c1C#N	-7%

Look-ups from above:
Under AmpC inh no det, O=C(c1ccco1)N1CCN(C(=O)c2ccccc2OC(=O)C23CC4CC(CC(C4)C2)C3)CC1 reads 108%
Under AmpC inh no det, CC(C)c1ccc(S(=O)(=O)N2CCN(CC(=O)Nc3ccc4c(c3)OCO4)CC2)cc1 reads 74%
Under AmpC inh no det, CC1Cc2ccccc2N1S(=O)(=O)c1cccs1 (stereo unspecified) reads -13%
